# RGS12 GoLoco inh – RGS12 GoLoco-Gai1 interaction inhibition; Potency, µM (top dose mostly 61.6 µM), without a hit: at the highest dose activity, negative = inhibition, hits mostly inhibitors; Gai1:RGS12 GoLoco peptide FP, rhodamine, 10 min; AID 880; 230,000 tested, 0.44% active; active means well fitted inhibition curve with a large enough effect, not every such curve was filed as active; inactive means no such curve, though single readings can be large or run the other way; further: nearly all actives have a fitted effect of over 30% in size; many of its hits are not listed in these tables
# Target sequence (P63096 whole entry, looked up): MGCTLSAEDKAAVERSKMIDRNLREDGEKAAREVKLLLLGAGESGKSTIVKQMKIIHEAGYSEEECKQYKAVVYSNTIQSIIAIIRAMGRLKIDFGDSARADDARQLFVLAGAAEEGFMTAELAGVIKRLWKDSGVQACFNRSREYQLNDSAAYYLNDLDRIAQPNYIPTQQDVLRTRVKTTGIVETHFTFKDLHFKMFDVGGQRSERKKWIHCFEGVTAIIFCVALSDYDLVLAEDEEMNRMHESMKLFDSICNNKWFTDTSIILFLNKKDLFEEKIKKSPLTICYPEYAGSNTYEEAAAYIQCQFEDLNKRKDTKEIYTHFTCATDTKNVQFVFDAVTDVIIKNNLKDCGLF
# Tau fibril ThT – tau fibrillization inhibition (ThT binding). Potency, µM (series often up to 57.4 µM), for inactives: at the highest dose activity, negative = inhibition, usual class: inhibitors. 270,000 tested, 2.1% active. recombinant tau K18 P301L (four-repeat tau fragment), heparin-induced fibrillization, ThT fluorescence. P10636; further: nearly all actives have a fitted effect of over 55% in size
# Target sequence (P10636 561-689 P618L limits assumed): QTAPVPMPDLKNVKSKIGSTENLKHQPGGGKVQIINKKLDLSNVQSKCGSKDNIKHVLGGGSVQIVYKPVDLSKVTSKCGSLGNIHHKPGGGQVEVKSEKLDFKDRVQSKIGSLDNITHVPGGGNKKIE
#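 In this qHTS, human K18 P301L tau is incubated with compound and heparin for 6 hr at 37 C, and Thioflavin T fluorescence then reports fibril load.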
# RECQ1 inh – inhibitors of human RECQ1 DNA helicase | RECQ1 DNA unwinding, red fluorescence kinetic read | Potency, µM (top dose mostly 57.3 µM), inactives show at the top dose activity, negative = inhibition, actives largely listed as inhibitors | 240,000 tested, 0.54% active;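 further: plate controls were vehicle for no effect and no enzyme for full effect; nearly all actives have a fitted effect of over 30% in size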
#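 RECQ1T1 50 nM; forked duplex (20 bp + 30-nt ss tails) 200 nM, ATP 2 mM final; pH 8.0, 2 mM MgCl2, 2.5 ug/ml poly(dI-dC); 15 min compound preincubation; discontinuous kinetic read over 2 h at RT.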
# TR SRC2 fluor cs – counter-screen for TRb-SRC2 inhibitors: fluorescence interference. TRb/SRC2 Texas Red total fluorescence interference. 280,000 tested, 0.29% active. Potency, µM (highest dose often 106 µM), for inactives: at the highest dose fluorescence change, negative = quenching. AID 1479; active means well fitted curve in either direction with a large enough effect; inconclusive means small, poorly fitted or top-dose-only effect
#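 Human TRb ligand-binding domain at 0.6 uM with 20 nM Texas Red SRC2 peptide in Tris buffer containing 1 uM T3 and 5% DMSO, incubated with compound 5 h at ambient temperature. Total fluorescence (555/632 nm) calculated as parallel + 2 × perpendicular.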
# Tau FP inhib – blocks human tau fibril formation measured by polarization; K18 P301L tau heparin fibrillization, Alexa594 FP, 6 h; Potency, µM (highest dose often 57.7 µM), for the others: at the highest dose activity, negative = inhibition, actives largely listed as inhibitors; 280,000 tested, 0.39% active; AID 1468; P10636; further: nearly all actives have a fitted effect of over 55% in size
#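 Recombinant K18 P301L […], labeled with Alexa 594 at 0.24 uM over 15 uM unlabeled; heparin inducer 20 uM final; 37 C, 6 hr; FP endpoint.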
# L3MBTL1 inh – blocks human L3MBTL1; Potency, µM (doses to about 57.1 µM), for the others: at the top dose activity, negative = inhibition, most hits filed as inhibitors; 230,000 tested, 0.66% active; AlphaScreen L3MBTL1–H3K9me1 peptide binding; Q9Y468; further: nearly all actives have a fitted effect of over 60% in size
#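 First, the protein-peptide complex forms for 30 min at room temperature (L3MBTL1 50 nM, biotinylated H3K9me1 peptide 75 nM). Next, compounds are pin-transferred and incubated 30 min. Finally, AlphaScreen beads are added and read after 30 min.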
# TRb SRC2 PPI – disrupts binding of human TR beta to SRC2; P10828; TRbeta-SRC2 peptide binding, fluorescence polarization; receptor liganded with 1 µM T3; Potency, µM (highest dose often 106 µM), for inactives: at the top dose activity change, negative = inhibition, hits mostly inhibitors; 280,000 tested, 0.065% active; AID 1469;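 further: plate controls were bound peptide for no effect and peptide without receptor for full effect; nearly all actives have a fitted effect of over 50% in size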
#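 Quantitative HTS by FP: 0.6 uM TRb LBD, 20 nM labeled SRC2 20-mer, 1 uM T3, 5% DMSO; 5 hr ambient incubation; % activity per concentration and potencies from concentration series.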
# Starred values were filed as active, the others as inactive; i = inactive; ? = inconclusive; . = no result given; & = joins results of further samples; [ ] = dose if it differs, or a comment. Unless noted, the call rests on the fitted dose curve; in most records, active means well fitted curve in the direction sought with a large enough effect; inconclusive means small, poorly fitted or top-dose-only effect, or another doubt; inactive means no such curve, though single readings can be large; an effect the other way counts as inactive or inconclusive. Unless noted, on the % scale 0 is the no-effect control and ±100 the full control effect; potency means the concentration at half of the fitted maximal effect.
item	Molecule	TR SRC2 fluor cs	Tau FP inhib	TRb SRC2 PPI	RGS12 GoLoco inh	L3MBTL1 inh	Tau fibril ThT	RECQ1 inh
1	Cc1cc(C(F)(F)F)c2c(n1)sc1c(O)cc(=O)[nH]c12	0%	-4%	0%	4%	.	-8%	i
2	O=C(O)c1cc2nc(-c3cccs3)cc(C(F)(F)F)n2n1	-2%	-4%	3%	-6%	-19%	0%	22%
3	O=C(CSc1nc(-c2ccco2)cc(C(F)(F)F)n1)NCCN1CCOCC1	-1%	-1%	2%	-2%	-6%	-10%	-9%
4	O=C(NNc1nc2ccc(F)cc2s1)c1cccc(F)c1	-2%	8%	5%	-15%	18%	?	2%
5	CC(=O)[C@@H]1[C@@H](C(=O)c2ccc(F)cc2)[C@]2(C(=O)Nc3ccccc32)[C@H]2C=Cc3cc(F)ccc3N12	-9%	-18%	0%	-2%	.	?	i
6	O=C(CCNS(=O)(=O)c1ccc(Cl)cc1)NCc1cccnc1	-4%	0%	-4%	.	0%	-13%	-7%
7	CCOc1ccc(CN(C)CCc2ccccn2)cc1	-6%	-3%	-5%	7%	.	-4%	-8%
8	CCS(=O)(=O)N1CCC(N2CCC(C)CC2)CC1	1%	2%	-1%	-17%	1%	-2%	-6%
9	C/C=C/c1ccc(OCCCCn2cncn2)c(OC)c1	-13%	3%	-10%	7%	.	-8%	-10%
10	O=C(NC1CC1)C1CCN(S(=O)(=O)c2cc(Cl)ccc2Cl)CC1	-1%	-12%[2.34 µM]	-6%	6%	0%	2%	-8%
11	CCCCN(CCCC)CCNC(=O)CSCc1ccc(C)cc1	0%	0%	3%	-2%	-17%	-1%	-1%
12	CC(=O)[C@@H]1[C@@H](C(=O)c2ccc(C)cc2)[C@]2(C(=O)Nc3ccccc32)[C@H]2C=Cc3cc(F)ccc3N12	0%	?	-1%	16%	-3%	14µM*	-19%
13	O=C(CSc1nnc2ccccn12)NNC(=O)c1ccc(Cl)cc1	-4%	10%	-3%	4%	9%	6%	-4%
14	O=C(Nc1nnc(-c2ccc3c(c2)CCCC3)o1)C1COc2ccccc2O1 (centres undefined)	-2%	-10%	-6%	10%	.	?	-4%
15	CC(=O)C(Sc1ccc2nnc(-c3cccnc3)n2n1)C(C)=O	-2%	7%	-3%	4%	.	-1%	i
16	C=CCN(CC=C)CCOc1ccc2ccccc2c1	0%	2%	3%	-1%	9%	-8%	i
17	COc1ccc(/C=N\Nc2ncc(F)c(N3CCOCC3)n2)cc1OC	-3%	7%	-9%	3%	-7%	-18%	-5%
18	O=C(O)CCC(=O)Nc1sc2c(c1C(=O)Nc1ccccc1)CCCCC2	-3%&5%	?	-9%&-7%	40%[activator]	.	14µM*	-5%
19	COC(=O)c1ccc(C(c2c(N)n(Cc3ccccc3)c(=O)n(C)c2=O)N2CCOCC2)cc1 (centres undefined)	-8%	1%	1%	-5%	6%	?	-17%
20	CCN(CC(=O)Nc1ccc(S(=O)(=O)N2CCCC2)cc1)CC(=O)Nc1cccc(OC)c1	-1%	-4%	-4%	-3%	4%	-3%	-4%
21	O=C(c1cccs1)n1nc(NCc2ccccc2)nc1NCc1ccccc1	-3%	?	3%	17%	16%	-6%	-6%
22	Cn1c(=O)c(-c2cc(=O)[nH][nH]2)c(O)c2ccccc21	-3%	?	1%	8%	-14%	-14%	-3%
23	O=[N+]([O-])c1ccc(OCCN2CCNCC2)cc1	-5%	?	-3%	-14%	16%	?	-10%
24	O=C1NCC(NC(=O)C(F)(F)F)c2cc3c(cc21)OCO3 (centres undefined)	-1%	0%	-2%	5%	-1%	9%	25%
25	O=S(=O)(c1ccc(NC(=S)NN=C(Cc2ccccc2)Cc2ccccc2)cc1)N1CCOCC1	-1%	5%	-3%	11%	-3%	?	-10%
26	CCSc1nc2sc3c(c2c(=O)n1-c1ccc(OC)cc1)CCN(C)C3	-6%	?	-9%	22%	-15%	?	-2%
27	CCCCNC(=S)NNC(=O)c1nn(C)c(C)c1Cl	-3%	-1%	2%	-3%	25%	-16%	-1%
28	Clc1ccccc1CN1CCN(CCCc2ccccc2)CC1	0%	10%	-3%	-5%	.	-8%	-9%
29	COc1cccc(/C=N/c2sc(Cc3ccccc3)c(C)c2C(N)=O)c1O	-3%	4%	0%	4%	5%	?	-2%
30	O=S1(=O)CCN(Cc2csc(-c3cccs3)n2)CC1	-4%	2%	-2%	11%	2%	-11%	-9%
31	OCC(CO)(CO)N=Cc1c(O)ccc2ccccc12	-19%	?	?	5%	?	25µM*	i
32	COc1ccc2c(=O)cc(C(=O)O)oc2c1	-1%	5%	3%	9%	-1%	5%	0%
33	CCS(=O)(=O)N1CCN(C2CCC(C)CC2)CC1 (centres undefined)	-5%	-3%	4%	2%	6%	8%	-16%
34	O=c1cc(CO)oc(C(Nc2ccccn2)c2ccsc2)c1O (centres undefined)	0%	6%	1%	6%	-8%	?	-15%
35	CCOC(=O)C1CCN(C(=O)c2ccc(CNS(=O)(=O)c3ccc(OC)cc3)cc2)CC1	-3%	1%	1%	-1%	.	-1%	-3%
36	COc1ccc(/C=N/NC(=O)c2cccc(Br)c2)cc1CSc1ccccn1	5%	-23%	6%	-2%	-5%	-11%	1%
37	COc1ccc(CCN2C(=O)c3[nH]nc(-c4ccccc4O)c3C2c2cccc(Cl)c2)cc1 (centres undefined)	0%	?	-3%	0%	-10%	?	-14%
38	O=C(c1ccc(F)cc1)N1CCN(C2CCC(c3ccccc3)CC2)CC1 (centres undefined)	-4%	4%	-6%	-12%	-8%	-4%	i
39	N#C/C(=C\c1cccc([N+](=O)[O-])c1)C(=O)Nc1cccnc1	-1%	-10%	5%	-9%	.	-10%	-17%
40	CCN(CC)CCOc1c(C)cccc1Cl	2%	1%	3%	-3%	.	-8%	2%
41	Cc1ccccc1OCCCCCNCCO	0%	-1%	-2%	-13%	.	-20%	-11%
42	CCCCOc1ncnc2c1[nH]c1ccc(OCC)cc12	0%	7%	-4%	7%	-3%	-14%	-4%
43	COc1ccc(C2C(C(=O)/C=C/c3ccco3)=C(O)C(=O)N2CCN2CCOCC2)cc1OC (centres undefined)	-1%	?	4%	10%	.	?	-1%
44	CC(C)CN1C=C2C(=O)C(C)(OC(=O)CCc3ccccc3)C(=O)C=C2C=C1c1ccc(C#N)cc1 (centres undefined)	-18%[11.2 µM]	?	3%[11.2 µM]	-2%[14.2 µM]	.	?	2%
45	O=C(O)c1cc(=O)c2cccc(O)c2[nH]1	-2%&-4%	-6%&0%	-7%&2%	1%&1%	.	-7%&-2%	-5%

# A portion of the library; the hit share may differ from the screen's.
